# Assay outcomes: PubChem BioAssay, several laboratories
# INS promoter inh: TRM-6 insulin promoter activity inhibition; TRM-6 cells (human fetal islet line), insulin promoter-eGFP reporter, imaging; reporter expression induced with tamoxifen; inhibition, % at 2 µM; hit rate 0.9% among 130,000; AID 1273;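 active = inhibition above the mean plus 3 SD, with well images judged a real hit on visual review, cut at about 60% in these data, passing the limit was not always enough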
# PKD1 kinase inh: inhibitors of human PKD1 kinase. Q15139. PKD1 kinase fluorescence polarization assay. inhibition, %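 (about 10 µM by stock and volumes)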. hit rate 0.056% among 200,000. AID 797;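 active = inhibition of 50% or more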;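 note: controls were vehicle for no effect and a reference inhibitor for full effect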
# HSV augment: increases HSV replication in cells | HSV replication augmentation in cells, fold increase | hit rate 0.005% among 220,000 | AID 1956 | maximum fold increase;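 active = peak rise of 1.5-fold or more in the series; tested in PC3 cells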;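 note: first round at 10 µM; read as green reporter fluorescence; hits show the peak of a series up to 25 µM; 1 = signal of infected wells without compound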
# RGS16-Gao HTS: regulators of human RGS16-Galphao interaction | O15492+P09471 | bead-based flow cytometry RGS16-Galphao binding, fluorescence; actives lie on both sides | binding response (% of control), % at 10 µM | hit rate 0.38% among 220,000 | AID 1441;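 active = below 25% or above 175%, edge rows of some plates excepted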;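 note: Galphao activated by GDP with aluminum fluoride before binding; 100% = wells without compound and 0% = beads without RGS; some results beyond the cut were filed as inactive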
# Target sequence (O15492 whole entry, looked up): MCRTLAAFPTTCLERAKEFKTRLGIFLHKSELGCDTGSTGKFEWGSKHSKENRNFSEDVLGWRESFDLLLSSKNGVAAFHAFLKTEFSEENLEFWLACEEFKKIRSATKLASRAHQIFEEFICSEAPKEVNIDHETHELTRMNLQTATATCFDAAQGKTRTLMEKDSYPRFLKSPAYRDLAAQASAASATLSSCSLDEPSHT
# Target sequence (P09471 whole entry, looked up): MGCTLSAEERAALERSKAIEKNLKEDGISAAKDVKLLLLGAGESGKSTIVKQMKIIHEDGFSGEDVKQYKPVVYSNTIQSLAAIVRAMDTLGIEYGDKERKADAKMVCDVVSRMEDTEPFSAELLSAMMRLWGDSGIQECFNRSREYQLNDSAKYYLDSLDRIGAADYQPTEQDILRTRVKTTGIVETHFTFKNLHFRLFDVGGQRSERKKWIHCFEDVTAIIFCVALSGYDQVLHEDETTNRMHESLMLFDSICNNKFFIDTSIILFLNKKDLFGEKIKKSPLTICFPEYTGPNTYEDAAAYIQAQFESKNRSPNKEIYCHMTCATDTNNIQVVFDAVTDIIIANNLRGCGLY
# GALR2 ag: activates the human galanin receptor 2. O43603. GALR2-expressing cells, agonist activation read-out. activation, %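 (tested at 5 µM)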. hit rate 0.48% among 140,000;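 active = above mean plus 3 SD of all compounds, about 5% in these data, not always enough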;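 note: 0% = vehicle buffer wells and 100% = reference agonist at full effect; tested in CHO reporter cells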
# Target sequence (O43603 whole entry, looked up): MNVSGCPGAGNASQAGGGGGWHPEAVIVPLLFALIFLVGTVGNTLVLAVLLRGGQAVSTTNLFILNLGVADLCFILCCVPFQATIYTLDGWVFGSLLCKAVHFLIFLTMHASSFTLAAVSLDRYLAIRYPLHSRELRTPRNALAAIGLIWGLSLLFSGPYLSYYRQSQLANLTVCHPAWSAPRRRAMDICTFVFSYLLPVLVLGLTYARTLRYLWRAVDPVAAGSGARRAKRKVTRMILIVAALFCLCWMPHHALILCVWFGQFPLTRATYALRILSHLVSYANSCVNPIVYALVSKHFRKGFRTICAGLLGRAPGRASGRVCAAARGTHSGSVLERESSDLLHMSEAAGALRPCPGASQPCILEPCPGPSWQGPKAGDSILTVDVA
# INS promoter inh cell count: further read-out of INS promoter inh, marked with its call; normalized cell count, %; measured here: cell count, toxicity; reference of the scale not given here;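 cells exposed to compound for 48 h; stained nuclei by imaging scaled within each plate; lower means fewer cells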
# HSV augment primary fold: further read-out of HSV augment, marked with its call; fold increase; compound at 10 µM; measured here: primary screen fold increase 10 uM; tested in PC3 cells;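 GFP signal in the first replicate; 1 = infected wells without compound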
# Starred values were filed as active, the others as inactive; i = inactive; · = not tested or not shown.
SMILES,INS promoter inh,INS promoter inh cell count,PKD1 kinase inh,HSV augment,HSV augment primary fold,RGS16-Gao HTS,GALR2 ag
CCCCNS(=O)(=O)c1ccc(NC(=O)C(Sc2ccccc2)c2ccccc2)cc1 (stereo not drawn),-11,61,3,i,0.86,47,-1.4
C/C(=N\NC(=O)c1ccc(COc2ccccc2)cc1)c1ccncc1,·,·,2,i,1.1,100,·
Cc1ccccc1NC(=O)/C(C#N)=C\c1cc(C)n(-c2ccc(C(=O)O)cc2)c1C,·,·,·,i,1,101,·
CC1(C(=O)N2CC3(CC(c4cccc(NC(=O)CC(c5ccccc5)c5ccccc5)c4)=NO3)C[C@@H]2C(N)=O)CC1 (stereo partly drawn),·,·,·,i,0.84,103,·
CCC(COC(=O)Nc1cccc(C)c1)NC(=O)OCC(C)C (stereo not drawn),·,·,-6,i,0.99,102,-1.6
Cc1ccc(C(=O)Nc2cnc3sc(C)nn3c2=O)cc1,20,143,0,i,0.91,96,-0.4
CCOC(=O)C(C)Oc1ccc(C2NC(=O)NC(C)=C2C(=O)Nc2ccccc2C)cc1 (stereo not drawn),-8,101,4,i,1,99,-1.4
CCOC(=O)COc1cc(-n2c(=S)[nH]c3cc(OC)c(OC)cc3c2=O)c(Cl)cc1Cl,-44,101,-3,i,0.81,92,·
CCN(CC)S(=O)(=O)c1cc(NC(=O)COc2ccc(C#N)cc2OC)ccc1C,21,140,0,i,0.95,104,0.6
CCSc1nc(-c2ccc(OC)cc2)cc(-c2ccccc2)c1C#N,23,155,-3,i,0.88,94,-0.9
CCCCn1c(=O)[nH]c(=O)c2c1nc(-c1ccc(C#N)cc1)n2C1CCCC1,18,118,-4,·,·,107,-0.5
O=C1[C@H]2[C@H]3[C@H](O)[C@H](O)C/C(=N\OC[C@@H](O)COCc4ccco4)[C@@H]3CC[C@H]2C(=O)N1c1ccc(F)cc1F,5,49,-7,·,·,100,-3.7
Cc1ccc(C(=O)N/C(=C\c2ccc(F)cc2)C(=O)NCc2ccncc2)cc1,13,105,4,i,1,98,-0.9
O=C(c1cccc(S(=O)(=O)N2CCCC2)c1)N(Cc1ccco1)C1CCS(=O)(=O)C1 (stereo not drawn),18,132,2,i,0.97,129,·
O=C(Cc1ccsc1)Nc1ccc(S(=O)(=O)C(F)F)cc1,·,·,-5,i,0.92,102,·
CC(=O)c1ccc(NC(=S)NC(C)CCc2ccccc2)cc1 (stereo not drawn),·,·,0,i,1.1,99,·
COc1ccc(NC(=O)C(c2ccc(C)cc2)N(C)C(=O)c2ccc(=O)[nH]c2)cc1 (stereo not drawn),4,143,-10,i,0.88,104,-0.2
O=C(CSc1ccc2c(c1)OCCO2)Nc1ccc(Br)cc1,47,52,-11,i,1,104,-2.0
O=S(=O)(Nc1nc2ccccc2nc1NCC1CCCO1)c1cc(Cl)ccc1Cl (stereo not drawn),·,·,·,i,0.93,102,·
O=C(Nc1ccc(Cl)cn1)C1CCCN1S(=O)(=O)c1ccccc1 (stereo not drawn),-10,140,0,i,0.38,51,-2.1
O=C(CCN1C(=O)c2cccc3cccc(c23)C1=O)N1CCN(c2ccccc2F)CC1,20,114,-4,i,0.91,102,·
O=C(Cc1cccs1)Nc1nc2ccccc2s1,-79,154,1,i,0.88,104,-1.7
COC(=O)C1=C(C)OC(N)=C(C#N)C1c1c(C)nn(-c2ccccc2)c1Cl (stereo not drawn),33,105,0,i,1.2,98,0.7
Oc1ccc(CN2CCN(c3ccccc3)CC2)c2cccnc12,61,92,-8,i,0.78,95,-1.2
CC1C/C(=N\Nc2ccc(S(N)(=O)=O)cc2[N+](=O)[O-])CC(C)(C)C1 (stereo not drawn),0,120,-5,i,0.88,109,-0.6
# Additional structures:
SMILES,INS promoter inh,INS promoter inh cell count,PKD1 kinase inh,HSV augment,HSV augment primary fold,RGS16-Gao HTS,GALR2 ag
N#Cc1c(-c2cccs2)nc(SCC(=O)c2cccs2)[nH]c1=O,·,·,-4,i,0.94,176,-0.9
Cc1cc(C)c(C(N)=O)c(NC(=O)Nc2ccccc2Cl)n1,·,·,-4,i,0.93,103,-1.8
COc1ccc(OC)c(C(=O)c2ccc(C(=O)Nc3ccc4ccccc4c3)cc2)c1,-13,98,5,i,0.86,87,-0.6
Clc1ccc(-c2nnc3n2-c2ccccc2SC3)cc1,·,·,·,i,0.97,100,·
COc1ccccc1CNC(=O)COc1ccc2c(c1)CCC2,·,·,-6,i,0.91,94,·
CC(CCc1ccccc1)NC(=O)COC(=O)C12CC3CC(CC(Br)(C3)C1)C2 (stereo not drawn),·,·,2,i,0.95,108,0.8
Cc1ccc(S(=O)(=O)c2nc(NCc3ccc4c(c3)OCO4)sc2Cl)cc1,21,116,-11,i,0.65,105,-2.7
Cc1cc([N+](=O)[O-])ccc1NCc1cccc([N+](=O)[O-])c1,·,·,-5,i,0.86,103,-1.6
CC(C)Nc1ccc(C(CC(N)=O)NC(=O)Cc2ccc(Br)cc2)cc1[N+](=O)[O-] (stereo not drawn),·,·,·,i,0.56,103,·
CCC(CC)C(=O)NCc1ccc2c(c1)cc(C)n2C,·,·,5,i,0.85,43,-1.3
COC(=O)c1cn(-c2ccccc2)c(C)c1C(=O)OC,i,56,-10,i,0.95,·,0.0
N#CCCN(/N=C/c1cccnc1)C1=NS(=O)(=O)c2ccccc21,57,118,-1,i,0.97,103,·
Cc1cccc(C(=O)NC2CCN(CC(=O)NCc3cccs3)CC2)c1,29,58,-4,i,0.94,97,·
CC(C)N(CC(N)=O)C(=O)Cc1coc2cc3c(cc12)CCC3,·,·,-5,i,0.95,98,0.4
NC(=O)N/N=C/c1ccc(-c2ccc([N+](=O)[O-])cc2)o1,·,·,·,i,0.96,90,·
O=C(c1cc(-c2cccs2)on1)N1CCN(c2ccccc2)CC1,·,·,10,·,·,36,-1.4
CCOC(=O)c1c(C)oc2cc(Cl)c(O)c(CN(C)C)c12,·,·,·,i,1.1,94,·
Cc1cc(C(=O)Nc2sc3c(c2C#N)CCC(C(C)(C)C)C3)no1 (stereo not drawn),·,·,2,i,0.96,102,0.9
CC(C)c1ccccc1NC(=S)NC1CCCCC1,29,134,8,i,1.1,103,·
COc1ccc(CC(=O)NC(C)c2nnc(SCC(=O)Nc3cc(C)ccc3OC)n2C)cc1 (stereo not drawn),-43,147,1,i,0.96,93,·
O=C(NC1CCS(=O)(=O)C1)/C(=C/c1ccc(Cl)cc1)NC(=O)c1ccccc1 (stereo not drawn),7,135,-12,i,1.1,115,-0.7
COc1ccc(CCNS(=O)(=O)c2ccc3c(c2)CC(C)N3C(C)=O)cc1OC (stereo not drawn),-25,93,15,·,·,104,-1.1
CC1CCCCN1Cc1nc2ccccc2c(=O)[nH]1 (stereo not drawn),-14,238,3,i,1,129,-2.4
O=C1[C@@H]2C(c3ccccc3Cl)=NO[C@@H]2C(=O)N1Cc1ccccc1,13,91,-13,i,0.93,87,-0.1
Cc1ccc(NC2=NC(c3ccc(C)cc3)n3c(nc(C)cc3=O)N2)cc1 (stereo not drawn),·,·,-3,i,0.97,91,0.3
# (listing goes on)
SMILES,INS promoter inh,INS promoter inh cell count,PKD1 kinase inh,HSV augment,HSV augment primary fold,RGS16-Gao HTS,GALR2 ag
CCNC(=S)N1CCN(c2ncccn2)CC1,23,105,0,i,1,126,-0.9
Cc1ccc(NC(=O)COC(=O)CCc2c[nH]c(=O)[nH]2)cc1,55,71,-8,i,1.1,83,-2.7
COc1ccc(NC(=O)N2c3ccccc3C(C)=CC2(C)C)cc1,·,·,9,i,1,103,·
CC(C)(C)NS(=O)(=O)c1cccc(S(=O)(=O)c2cccc(S(=O)(=O)NC(C)(C)C)c2)c1,·,·,-7,·,·,79,-1.9
O=C(Nn1cnnc1)C1CCCN1S(=O)(=O)c1ccc(F)cc1 (stereo not drawn),47,118,6,i,0.91,102,-2.4
O=c1c2cc(Cl)ccc2nc(-c2ccccc2)n1O,·,·,-2,i,0.92,96,·
CC(C)N(c1ccccc1)c1ccc(NC(=O)CCl)cc1,·,·,-2,i,0.7,97,·
COC(=O)CNc1nc(-c2ccncc2)nc2ccccc12,·,·,6,·,·,306,-1.0
COc1cc(OC)cc(-c2nnc(N(C)C(=O)c3ccncc3)s2)c1,·,·,-4,i,0.92,105,·
O=c1c2c(C(F)(F)F)cc(C(F)(F)F)nc2[nH]n1-c1ccccc1,35,82,-11,i,1.2,97,-1.4
FC(F)(F)C1=CC(c2ccccc2)=NCCN1,-62,51,-1,i,0.89,98,-0.5
CCN1CCN(C(=O)C2CCN(Cc3cc(Cl)ccc3O)CC2)CC1,-9,68,-5,i,0.99,96,-2.6
CCS(=O)(=O)c1ccc2oc(SCC(=O)N3c4ccccc4CC3C)nc2c1 (stereo not drawn),-457,101,5,i,0.78,105,-1.9
Cc1cccc(C)c1NC(=S)N1CCCN(C)CC1,-15,111,-8,i,0.97,99,·
COCc1[nH]nc2c1C(c1c(F)cccc1Cl)C(C#N)=C(N)O2 (stereo not drawn),·,·,0,i,0.96,109,-0.8
Cn1c(SCc2n[nH]c(=S)o2)nnc1-c1ccccc1,23,79,8,i,0.84,100,-2.3
Cc1ccccc1CN(CC1CCC(C(=O)O)CC1)C(=S)Nc1ccccc1F (stereo not drawn),·,·,-2,i,1.1,95,·
Cn1c(=O)n(Cc2ccc(Cl)cc2)c(=O)c2c1nc1n2CCN1Cc1ccco1,·,·,-1,i,0.91,104,0.3
COC(=O)CC1C(=O)NCCN1C(=O)Nc1cccc(Cl)c1 (stereo not drawn),·,·,0,i,1,99,·
CCOC(=O)c1cccnc1SCC(=O)NCc1ccccc1,·,·,-6,i,0.84,98,2.3
O=C1CCC(=O)N1c1nc2n(n1)C(c1ccccc1)C=C(c1ccc(Br)cc1)N2 (stereo not drawn),7,69,4,i,1.1,101,3.3
CCOC(=O)c1ccccc1NS(=O)(=O)c1ccccc1,-192,88,0,i,0.91,98,-3.1
N/C(=N\OC(=O)/C=C/c1ccccc1)c1ccc(Br)cc1,·,·,-9,i,0.93,103,·
CCOC(=O)CCSc1nc(C)c2cc(C)ccc2n1,-97,41,-5,i,0.85,102,-1.3
CCC(=O)c1ccc(N2CCOCC2)c(F)c1,-31,69,0,i,0.88,100,-3.0

# Part of the list above, as labelled records.
CCOC(=O)c1ccccc1NS(=O)(=O)c1ccccc1
  INS promoter inh: -192; INS promoter inh cell count: 88; PKD1 kinase inh: 0; HSV augment: i; HSV augment primary fold: 0.91; RGS16-Gao HTS: 98; GALR2 ag: -3.1

N/C(=N\OC(=O)/C=C/c1ccccc1)c1ccc(Br)cc1
  INS promoter inh: ·; INS promoter inh cell count: ·; PKD1 kinase inh: -9; HSV augment: i; HSV augment primary fold: 0.93; RGS16-Gao HTS: 103; GALR2 ag: ·

CCOC(=O)CCSc1nc(C)c2cc(C)ccc2n1
  INS promoter inh: -97; INS promoter inh cell count: 41; PKD1 kinase inh: -5; HSV augment: i; HSV augment primary fold: 0.85; RGS16-Gao HTS: 102; GALR2 ag: -1.3

CCC(=O)c1ccc(N2CCOCC2)c(F)c1
  INS promoter inh: -31; INS promoter inh cell count: 69; PKD1 kinase inh: 0; HSV augment: i; HSV augment primary fold: 0.88; RGS16-Gao HTS: 100; GALR2 ag: -3.0

# The listing continues:
SMILES,INS promoter inh,INS promoter inh cell count,PKD1 kinase inh,HSV augment,HSV augment primary fold,RGS16-Gao HTS,GALR2 ag
Cc1ccc(CNc2nc3ccccc3n3cnnc23)cc1,·,·,-1,i,0.82,103,-2.0
Cc1cc(C)n2nc(C(=O)NCc3ccccc3)cc2n1,·,·,-9,i,0.76,100,-0.5
C=C(C)c1cccc(C(C)(C)NC(=O)Nc2nnc(C(C)C)s2)c1,·,·,·,i,0.94,96,·
O=C(c1ccc(F)cc1)N1CCN=C1c1ccccc1,-10,105,-3,i,0.96,100,0.1
CSc1nnc(C(C)(C)C)c(=O)n1/N=C/c1ccc(C(C)C)cc1,·,·,·,i,1.1,100,·
O=C(COc1ccc([N+](=O)[O-])cc1)Nc1ccc(C(=O)NCc2cccnc2)cc1,-21,97,-4,i,0.58,105,-1.1
CC(C)c1ccc2occ(-c3nn[nH]n3)c(=O)c2c1,36,127,3,i,0.9,101,0.4
C1=CC2CC1CC2CN1CCN(Cc2ccccc2)CC1 (stereo not drawn),·,·,-2,i,0.91,105,-0.5
CCCCN1C(=O)/C(=C/C=C2\N(C)c3ccccc3C2(C)C)SC1=S,·,·,36,·,·,114,-2.2
COC(=O)[C@@H](NC(=O)c1ccc(OC2CCN(Cc3ccccn3)CC2)cc1)C(C)C,5,97,-2,i,0.87,114,·
CCN(CC(=O)NC1CCCCC1)S(=O)(=O)c1ccc(Cl)cc1,50,109,-4,i,0.9,102,-2.8
CCOc1ccc(/C=C2/SC(=S)N(n3c(C)ccc3C)C2=O)cc1,-3,129,-1,i,1.2,104,-2.6
